Screening data: PubChem BioAssay, several laboratories
Beta apoptosis: blocks beta cell apoptosis; AID 435005; actives 0.8% (n = 300,000); protection from apoptosis, % (test concentration not listed); INS-1E cytokine-induced death, ATP luminescence, 48 h; percent of positive-control rescue, neutral wells zero;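 active = all replicates at 75% or more, or half of them and the mean; inconclusive = half reach 75% but not the mean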;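 note: 0% = cytokine-treated negative control wells and 100% = positive control rescue; higher means more ATP so stronger rescue from cytokine killing; wells of about 40 µL received 100 nL stock; the first replicate is given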
Vif TR-FRET: HIV-1 Vif–A3G interaction blockers – biochemical, TR-FRET, GST-Vif 1-94, biotin-A3G peptide, dose response retest, primary screen (AID 1117319); TR-FRET GST-Vif / biotin-A3G peptide binding; higher % means a stronger effect; test concentration not given here; strong numbers were not always called active; inhibition, %, or IC50 in µM where a hit was titrated; actives 0.57% (n = 260,000);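 active = above the screen mean plus three standard deviations and confirmed in dose response; inconclusive = results disagree or hit not tested in dose response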;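 note: Vif residues 1-94 fused to GST binding biotinylated APOBEC3G peptide 110-148; 0% = full assay without inhibitor and 100% = GST in place of GST-Vif; retest series ran down from 100 µM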
AF4-AF9 inh: inhibitors of human MLL-AF4/AF9 interaction | actives 0.47% (n = 350,000) | inhibition, % at 10 µM | P42568 | AlphaScreen, biotin-AF4 peptide binding to FLAG-AF9;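 active = every replicate reaching a set inhibition limit, whatever the replicate mean, cut at about 25% in these data; inconclusive = mean inhibition reaches that limit but some replicates miss it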;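 note: 0% = plate neutral control median and 100% = total signal loss; the record names both 10 and 1 µM as test concentration; the first replicate is given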
Bfl-1 A1 inh: inhibitors of the anti-apoptotic protein A1, read as caspase activation. actives 0.066% (n = 330,000). MEF A1-2A-BIM cells, Caspase-Glo 3/7 luminescence, 3 h; percent of clofoctol response, vehicle zero. caspase activation, % (no concentration beside the values);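 active = over half of replicate activation scores above 10%, or exactly half above 10 with the replicate mean above 10; inconclusive = replicate mean below 10 yet half the replicates above 10; inactive = over half of replicates below 10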;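 note: wells of about 30 µL received 50 nL stock; many hits fall short of the cut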
Calb FLC: affects C. albicans growth with fluconazole; growth inhibition, % (no concentration beside the values); actives 0.57% (n = 300,000); C. albicans CaCi-2 (fluconazole-resistant clinical isolate) + fluconazole, Alamar Blue growth, 48 h; AID 1979;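 active = most replicates above 75%; inconclusive = exactly half above 75%; inactive = most below 75%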;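 note: all wells also contain fluconazole at 8 µg/ml as a sub-toxic cotreatment; 0% = median of DMSO wells and 100% = median of geldanamycin control wells; wells of about 8 µL received 7.5 nL stock; the first replicate is given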
RanGTP-Imp inh: disruptors of Ran-importin-beta complex formation – biochemical, FRET, CFP-Ran, YFP-importin-beta, homogeneous, primary screen | cell-free CFP-Ran/YFP-importin-beta FRET ratio | inhibition, % (concentration not given with the values) | actives 1.1% (n = 300,000) | AID 2216;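 active = most replicates above 15%; inconclusive = exactly half above 15%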;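 note: 0% = DMSO wells and 100% = Ran loaded with GDP instead of GTP; wells of about 40 µL received 100 nL stock; the first replicate is given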
T cruzi repl: blocks replication of Trypanosoma cruzi. T. cruzi beta-gal in NIH3T3, luminescence, 90 h. inhibition, % (concentration not given with the values). actives 1.4% (n = 300,000). AID 1885;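 active = mean inhibition across valid replicates above about 55%, limit read from the data; inconclusive = mean below that limit but half or more replicates reach it; inactive = mean below it, under half of replicates reach it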;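 note: signal also drops with host cell toxicity which is not excluded here; 0% = plate median of DMSO wells and 100% = zero luminescence signal; higher percent means less beta-gal luminescence so fewer parasites; stock transfer was 50 nL into about 50 µL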
LANA-H2B inh: blocks KSHV LANA binding to histone H2A/H2B. Q9QR71. cell-free LANA-H2A/H2B peptide, fluorescence polarization. inhibition, % (test concentration not listed). actives 0.6% (n = 320,000). AID 2629; in the data active = inhibition mostly above about 10%, no sharp cut-off; inactive = mostly below about 6.7%;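 note: stock transfer was 7.5 nL into about 10 µL; 0% = median of vehicle wells and 100% = median of positive control wells; one replicate is shown; the record names a cut of 25% in any replicate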
Target sequence (Q9QR71 whole entry, looked up): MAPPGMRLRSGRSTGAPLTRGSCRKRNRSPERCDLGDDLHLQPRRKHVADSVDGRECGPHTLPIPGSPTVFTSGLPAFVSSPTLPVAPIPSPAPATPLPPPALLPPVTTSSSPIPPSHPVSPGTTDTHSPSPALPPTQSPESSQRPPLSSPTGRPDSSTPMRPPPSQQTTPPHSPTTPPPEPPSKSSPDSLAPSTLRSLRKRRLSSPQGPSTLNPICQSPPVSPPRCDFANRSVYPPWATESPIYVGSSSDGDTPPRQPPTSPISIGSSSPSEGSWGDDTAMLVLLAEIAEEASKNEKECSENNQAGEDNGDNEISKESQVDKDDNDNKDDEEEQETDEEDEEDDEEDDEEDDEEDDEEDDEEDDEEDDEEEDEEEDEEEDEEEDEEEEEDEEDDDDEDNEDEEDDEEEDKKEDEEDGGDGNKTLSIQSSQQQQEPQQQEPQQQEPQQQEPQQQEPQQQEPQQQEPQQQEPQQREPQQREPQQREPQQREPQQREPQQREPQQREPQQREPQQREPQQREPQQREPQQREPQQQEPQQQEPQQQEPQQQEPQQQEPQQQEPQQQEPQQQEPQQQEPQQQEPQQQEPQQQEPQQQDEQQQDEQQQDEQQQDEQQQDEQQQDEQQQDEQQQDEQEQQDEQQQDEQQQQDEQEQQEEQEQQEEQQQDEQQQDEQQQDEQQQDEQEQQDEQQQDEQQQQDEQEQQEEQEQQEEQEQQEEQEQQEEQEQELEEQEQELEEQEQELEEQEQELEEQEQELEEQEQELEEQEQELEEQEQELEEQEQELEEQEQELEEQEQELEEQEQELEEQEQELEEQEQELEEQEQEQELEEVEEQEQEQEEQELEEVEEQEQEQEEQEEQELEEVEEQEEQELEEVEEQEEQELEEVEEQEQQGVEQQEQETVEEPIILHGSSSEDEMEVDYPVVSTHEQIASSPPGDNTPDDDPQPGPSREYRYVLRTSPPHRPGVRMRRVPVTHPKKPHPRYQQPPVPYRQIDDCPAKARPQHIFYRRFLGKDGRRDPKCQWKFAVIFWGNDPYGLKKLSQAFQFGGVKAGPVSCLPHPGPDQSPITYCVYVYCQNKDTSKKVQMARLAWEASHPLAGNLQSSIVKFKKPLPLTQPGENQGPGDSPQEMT
* hit, by the source's call; ? = inconclusive; . = not tested or not shown; & = joins results of further samples. Compounds as they come; overall some 4.3% were active at least once.

SMILES	Beta apoptosis	Vif TR-FRET	AF4-AF9 inh	Bfl-1 A1 inh	Calb FLC	RanGTP-Imp inh	T cruzi repl	LANA-H2B inh
Cn1c(C(=O)NCc2cccs2)cc2oc3ccccc3c21	-2	3%	.	1.1	0	-1.7	8	-0.7
Cc1nnc(NC(=O)C(C)Sc2nnc(-c3ccco3)n2C(C)C)s1 (stereo not given)	3	.	-1.2	-0.2	-4	-3.5	6	-6.4
Cc1cc(C)cc(NC(=O)CSc2nnc(CNC(=O)c3cccs3)o2)c1	2	20%	.	1.0	5	3.1	-13	-0.7
NC(=O)C[N+]1(CC#CC(O)(c2ccccc2)c2ccccc2)CCCC1	-4	-4%	-18	-0.9	8	?	-11	0.1
C=CCn1c(SCC(=O)N(CC)CC)nc(O)cc1=O	1	6%	.	-0.2	?	-4.0	1	-2.6
COc1ccc(N2CCN(C(CNC(=O)C(=O)NCc3cccnc3)c3ccco3)CC2)cc1 (stereo not given)	-12	-13%	-6.1	1.0	-3	5.6	-3	-6.5
O=C(CN1CCOCC1)N1CCN(c2nnc(-c3ccccc3)c3ccccc23)CC1	-3	3%	.	0.3	12	4.1	-7	-0.5
COc1ccc(-c2nc(SC(C)C(=O)Nc3ccc(NC(C)=O)cc3)n[nH]2)cc1 (stereo not given)	-2	0%	-2.4	-0.1	-2	0.7	19	2.2
COc1ccccc1CNCC(c1ccccc1)c1ccccc1	5	.	-22	-0.4	-15	6.4	21	-0.7
OCCNC(=S)NCc1ccccc1	1	1%	-2.4	-0.2	2	0.3	-8	7.8
CC1CC(C)CN(S(=O)(=O)c2ccc(C(=O)Nc3sccc3C(N)=O)cc2)C1 (stereo not given)	14	-14%	-0.7	-0.6	-3	1.8	7	1.6
COc1ccc(CN(C2CCCC2)S(=O)(=O)c2ccc(-n3cnnn3)cc2)cc1	3	-6%	.	0.7	4	4.0	5	0.0
O=C(/C=C/c1cccc(F)c1)Nc1nccs1	-5	3%	1.0	-6.8	19	-1.6	-30	-0.8
Cc1ccc(C)c2sc(NC(=O)CN3C(=O)CCC3=O)nc12	-8	.	4.2	-0.3	-10	3.4	-4	-0.7
COc1ccc(OC)c(S(=O)(=O)NCc2cn3ccsc3n2)c1	-2	-2%	-0.7	0.1	-3	3.2	-16	-6.0
O=C(Nc1nccs1)C1CCN(S(=O)(=O)c2c(Cl)cccc2Cl)CC1	1	2%	.	0.1	-17	4.1	11	-1.3
O=[N+]([O-])c1cccc(S(=O)(=O)NCCc2cccs2)c1	6	.	2.8	0.1	0	-0.4	1	11
O=C1NC(=S)N/C1=C\c1cccc([N+](=O)[O-])c1	.	0%	-2.1	1.7	-7	?	-13	-0.5
CSc1nnc2c3ccccc3n(CCc3ccccc3)c2n1	7	?	.	0.1	1	2.0	35	2.9
Cc1cc2ccccn2c1C(=O)c1cccc(F)c1	2	-1%	1.9	0.3	6	-0.7	5	0.0
CCN(CCNC(=O)C1CCN(S(=O)(=O)c2cccc3nsnc23)CC1)c1ccccc1	0	7%	.	-1.0	-2	1.4	2	-4.7
CCC(=S)/C=C1\Sc2ccccc2N1CCCS(=O)(=O)O	.	0%	.	0.0	0	2.5	2	0.1
CN(C(=O)C1CCN(S(=O)(=O)c2cccs2)CC1)c1ccccc1	-5	3%	-1.5	0.5	15	3.7	-7	3.5
C[C@H]1C[C@H]2[C@@H]3CCC4=CC(=O)C=C[C@]4(C)[C@@]3(Cl)[C@@H](O)C[C@]2(C)[C@@]1(O)C(=O)CO	-4	.	-1.9&0.8	-0.3	.	-2.8	20	0.0&-8.1
Cc1csc2ncnc(N3CCN(C(=O)Nc4ccc(OC(F)(F)F)cc4)CC3)c12	-7	-3%	-1.7	-0.1	2	-0.3	9	-3.1
COc1ccc2nc(NC(=S)NC(=O)c3ccco3)sc2c1	-3	.	.	-0.5	?	?	10	-2.9
CCN(CC)CCn1c(NCc2nc3ccccc3n2Cc2ccccc2)nc2ccccc21	7	5%	.	0.1	10	11	51	1.8
CCn1c(SCC(=O)Nc2cccc(NC(C)=O)c2)nnc1-c1ccco1	1	.	-0.6	0.8	-6	-1.3	-9	3.2
CCCc1nn2c(=O)cc(CSCC(=O)Nc3ccc(C)cc3)nc2s1	1	.	-0.9	0.0	-4	1.7	-11	1.8
CCCCC(=O)N1CCCC(c2nc(-c3cccc(OC)c3)no2)C1 (stereo not given)	1	22%	-2.6	0.2	22	-1.1	10	-1.5
Cc1cccc(N(C)C(=O)CN(C)S(=O)(=O)c2ccc3c(c2)c(=O)n(C)c(=O)n3C)c1	1	.	-0.9	1.4	-5	7.0	-2	-4.2
CN1CCN(S(=O)(=O)c2ccc(-c3ccccc3)cc2)CC1	-7	?	.	-0.4	-5	0.3	5	2.4
O=C(N[C@@H](Cc1ccccc1)C(=O)NC1CC1)c1ccc(Cl)cc1	-2	.	-2.4	-0.1	10	-3.9	-4	7.3
CCCN(CC(=O)Nc1ccccc1C)C(=O)c1cccc(S(=O)(=O)N2CCc3ccccc3C2)c1	38	.	0.3	-0.5	3	0.9	14	1.5
COc1ccc(C(=O)NCC(=O)OCCCOC(=O)CNC(=O)c2ccc(OC)c(OC)c2)cc1OC	.	3%	-2.1	0.0	3	1.1	-7	0.3
COc1ccccc1N(C(=O)c1ccco1)C(C(=O)NC1CCCC1)c1ccc(N2CCOCC2)cc1 (stereo not given)	-3	.	2.6	0.0	5	-1.6	2	-2.7
COc1ccc(-c2nnc(C3CCN(S(=O)(=O)c4ccccc4)CC3)o2)cc1	-6	.	.	-0.9	-1	7.8	-1	-0.2
Fc1ccc(N2CCN(Cc3cnc(Cl)s3)CC2)cc1	0	-4%	1.4	0.6	-8	-3.6	22	1.2
CCn1nnc(NC(=O)c2ccc([N+](=O)[O-])o2)n1	-35	-3%	-1.6	-0.1	1	8.1	61*	-2.3
O=C(OC1CCCCC1=O)c1ccc(F)c(S(=O)(=O)N2CCOCC2)c1 (stereo not given)	6	5%	13	1.1	8	1.4	-9	-9.5
CCCSc1nnc(Sc2nnnn2-c2ccccc2)s1	.	28%	.	2.6	18	0.2	55*	0.1
Cc1cccc(-c2nc(S(=O)(=O)c3ccc(F)cc3)c(NCCCN3CCOCC3)o2)c1	-12	.	4.8	0.0	-9	2.8	-3	-0.9
CCCCOc1ccc(C(=O)NN2C(=O)NC3(CCCCC3)C2=O)cc1OC	-3	3%	2.3	0.4	3	.	-10	-1.3
CCOC(=O)/C(=N\Nc1ccc(C(C)=O)cc1)c1csc(Nc2ccccc2)n1	14	6%	.	-0.2	-7	18*	51	-3.7
COC(=O)N1CC(C)N(C(=O)OC)CC1C (stereo not given)	-1	25%	.	-0.2	3	-0.2	-10	1.6
O=C(COc1ccccc1[N+](=O)[O-])N/N=C/C=C/c1ccco1	4	?	.	0.5	-1	-3.4	-7	3.7
Cc1ccc(N(C)S(=O)(=O)c2cccc(C(=O)NNC(=O)c3ccncc3)c2)cc1	2	-14%	-0.2	-0.6	.	.	.	-5.0
Cc1ccc(NS(=O)(=O)c2cc(N)ccc2Cl)c(C)c1	-4	29%	-29	-0.7	2	-4.6	9	5.3
O=C(Nn1cnnc1)c1cc2cc(Br)ccc2oc1=O	-2	-1%	.	-0.6	12	-5.9	-13	-2.8
Cc1nc(SCC(=O)NCC2CCCO2)c2oc3ccccc3c2n1 (stereo not given)	1	6%	-2.3	-0.1	-2	-0.7	9	4.5
O=C/C(=C\Nc1ccc(S(=O)(=O)CCO)cc1)c1nc2cc(Cl)ccc2o1	1	8%	0.2	0.7	-7	22*	-3	0.0
Cc1ccc(NC(=O)N2CCCC2C(=O)Nc2ccc3c(c2)OCO3)cc1 (stereo not given)	6	2%	-2.4	-0.2	-3	2.5	-1	0.2
COc1ccc(-n2cc(CN(C)CCO)c(-c3cccc(F)c3)n2)cc1	-14	-5%	1.8	0.7	-9	7.2	16	-2.3
NC(=S)Nc1ccc(Oc2ccc(NC(N)=S)cc2)cc1	13	0%	10	0.2	-49	0.3	-2	-3.0
COc1cc(NC(=O)Nc2ccc(C)cc2)cc([N+](=O)[O-])c1	30	-4%	5.0	-0.1	4	0.2	10	-4.7
N=C1C(=O)OCC1c1ccccc1NC(=O)c1ccccc1 (stereo not given)	.	10%	-2.7	0.4	-13	4.6	-31	1.5
O=C(NCCC1=CCCCC1)C1CCN(S(=O)(=O)c2cccs2)CC1	6	1%	3.6	2.0	-25	4.1	3	-1.2
Cc1nonc1OCCNc1ccc([N+](=O)[O-])cc1	-7	4%	2.0	0.4	25	4.3	0	-7.5
CCOC(=O)C1=C(CS(=O)(=O)c2ccc(C)cc2)NC(=O)NC1c1cc(OC)c(O)c(OC)c1 (stereo not given)	4	-3%	-4.0	-0.6	-3	-2.0	-12	-2.1
CC(=O)N1CCN(c2ccc(NCc3ccc(-c4ccc(Br)cc4)o3)cc2)CC1	5	.	13	-0.8	.	.	.	-5.1
The results go on.
SMILES	Beta apoptosis	Vif TR-FRET	AF4-AF9 inh	Bfl-1 A1 inh	Calb FLC	RanGTP-Imp inh	T cruzi repl	LANA-H2B inh
Cc1cc(C)c2[nH]c(=O)c(C(c3nnnn3C(C)(C)C)N(Cc3ccco3)CC3CCCO3)cc2c1 (stereo not given)	-2	?	.	-0.9	19	?	1	2.0
O=C(Nc1ncc([N+](=O)[O-])s1)C1CC(=O)N(c2ccc(F)cc2)C1 (stereo not given)	8	.	1.4	-1.0	0	6.3	9	-2.0
Cc1nn(CC(=O)Nc2c(F)cc(F)cc2Br)c(=O)c2cccn12	-4	.	1.5	-0.2	-7	-3.4	-5	-0.2
COC1CCN(Cc2cn(Cc3ccccc3)nc2-c2cc3ccccc3o2)CC1	8	-13%	3.5	-0.1	4	3.6	27	-1.7
CC(NC(=O)c1cccnc1)C(c1cccs1)N1CCOCC1 (stereo not given)	-5	-5%	2.0	0.6	-9	-3.5	65*	11
CN(Cc1nc2ccc(F)cc2[nH]1)C(=O)C1CCC(=O)N(C2CC2)C1 (stereo not given)	-6	.	-0.4	1.6	0	0.5	-5	-0.7
COc1ccc2oc(C(=O)OC(C)C(=O)NCc3ccccc3)c(C)c2c1 (stereo not given)	-3	-10%	-1.6	-0.3	-13	2.5	0	-0.2
CCCn1c(-c2ccccc2)cc(SC)c(C#N)c1=O	-20	.	0.4	0.3	-18	-2.1	5	4.6
Cc1c(CCOC(=O)c2cc([N+](=O)[O-])cc([N+](=O)[O-])c2)sc[n+]1CC(=O)c1ccccc1	7	11%	2.4	-0.6	-37	5.6	69*	-1.7
Cn1ncc(Cl)c1C(=O)NCc1ccc(Cl)cc1	1	.	-6.7	-1.1	-10	2.5	-1	-1.7
Cc1cc(C(=O)N/N=C(\CCC(=O)O)c2cccs2)c2ccccc2n1	.	5%	-0.2	-0.4	14	-0.7	-18	-2.6
COc1cc(Cl)c(C)cc1NC(=O)COC(=O)c1cc(SC)ccc1Cl	1	-35%	-1.4	0.3	-10	2.4	-8	2.1
